GLA inh pH 4.5 = inhibitors of human alpha-galactosidase A at pH 4.5; P06280; purified enzyme, 4-MU-alpha-Gal fluorescence, pH 4.5; activity change, negative = inhibition, % at 105 µM; 230,000 tested, under 10 active; AID 1467; inconclusive = small, poorly fitted or top-dose-only inhibition, or a rising curve; inactive = flat fitted curve, though single readings scatter; no compound was filed as active;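 also: 0% = full activity with enzyme and -100% = basal without enzyme; dose as in the result columns while the protocol names 77 µM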
Target sequence (P06280 whole entry, looked up): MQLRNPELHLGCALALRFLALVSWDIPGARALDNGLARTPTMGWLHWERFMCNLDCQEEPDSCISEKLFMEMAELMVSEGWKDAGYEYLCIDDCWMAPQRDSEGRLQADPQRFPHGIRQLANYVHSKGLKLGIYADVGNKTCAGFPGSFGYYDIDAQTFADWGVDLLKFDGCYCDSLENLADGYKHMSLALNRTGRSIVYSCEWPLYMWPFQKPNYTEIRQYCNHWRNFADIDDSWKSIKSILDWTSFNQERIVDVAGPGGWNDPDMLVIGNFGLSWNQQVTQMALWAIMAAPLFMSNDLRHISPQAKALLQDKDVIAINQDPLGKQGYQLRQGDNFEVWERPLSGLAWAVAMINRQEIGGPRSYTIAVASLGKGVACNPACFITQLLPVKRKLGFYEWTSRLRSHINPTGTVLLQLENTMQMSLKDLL
miR-21 FLuc = raises the signal of a miR-21 reporter. HeLa miR-21 FLuc reporter, luciferase, 48 h. Potency, µM (series often up to 38.3 µM), for inactives: top-dose reporter change, positive = more light. 340,000 tested, under 10 active; active = well fitted rising curve with a large enough effect; inconclusive = small, poorly fitted or top-dose-only effect; inactive = no such curve, though single readings can be large or run the other way;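 also: % of control where 0% means no effect; miR-21 action dims this reporter so a rising signal means less miR-21 action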
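Compounds were titrated across several concentrations (up to approximately 40 uM) and incubated 48 hours with HeLa miR-21-FLuc reporter cells (miR-21 target sequence downstream of FLuc, endogenous miR-21). Readout was firefly luciferase luminescence after lytic detection reagent.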
Rango complex inh = inhibitors of Rango-importin beta complex formation. Potency, µM (highest dose often 92.2 µM), for inactives: top-dose inhibition of complex formation. 0.031% of 340,000 active. Rango CFP/YFP FRET sensor + importin beta, 45 min. Q14974; active = rising FRET ratio curve, often small or poorly fitted; inconclusive = mostly compound fluorescence or quenching in the first reads; inactive = flat curves in all reads;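 also: potency is read from the fitted curve at half-maximal effect; 0% = DMSO wells and 100% = buffer wells lacking importin beta; nearly all actives have a fitted effect of over 15% in size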
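Inhibition scored from the CFP 486 nm/YFP 530 nm FRET ratio 45 min after adding 0.125 microM importin beta to 50 nM Rango biosensor preincubated 5 min with compound (room temperature, PBS with DTT, Tween-20, BSA). No-importin wells as positive control.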
Rango release inh = inhibitors of RanGTP-induced Rango-importin beta complex dissociation; AID 540253; Biochemical FRET Rango-importin beta, RanGTP-induced dissociation; 0.071% of 340,000 active; Potency, µM (doses to about 46.1 µM), for inactives: top-dose activity change, negative = inhibition; active means falling FRET ratio curve, often poorly fitted, with flat reads before Ran was added; inconclusive means other falling curves, or compound fluorescence or quenching; inactive means flat or rising ratio curve;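 also: potency is read from the fitted curve at half-maximal effect; % of control where 0% means no effect; nearly all actives have a fitted effect of over 45% in size; -100% = wells without RanGTP and RCC1; the record marks most hits as doubtful in a second field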
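Rango (0.1 uM)–importin beta (0.25 uM) complex; RanGTP-RCC1 trigger; 45 min RT; CFP/YFP FRET read.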
Active calls of the source: *; ? = inconclusive; . = not tested or not shown; & = joins results of further samples; [ ] = dose if it differs, or a comment. Not all compounds are listed (hit frequency here may not be typical).

cpd	mol	miR-21 FLuc	Rango complex inh	Rango release inh	GLA inh pH 4.5
1	Cn1c(=O)n(CCN2CCOCC2)c(=O)c2c1nc1n2CCCN1c1ccccc1	-1%	.	.	5
2	COCCCNCCOCCOc1ccc(C)cc1[N+](=O)[O-]	-6%	1.2%	-6%	8
3	CC(Nc1nc(N2CCN(CCO)CC2)nc2ccccc12)c1ccccc1 (configuration not stated)	1%	0.1%	17%	3[21.1 µM]
4	CCOC(=O)Cc1nnc2c(Nc3ccccc3F)nc3nonc3n12	20%	0.8%	-15%	8
5	C[N+]1(CC(=O)OCCCC2CCCCC2)CCCC1	-3%	5.0%	0%	6
6	Cc1ccc(C(=O)NCc2ccco2)cc1[N+](=O)[O-]	-11%	1.0%	7%	0
7	Cc1ccc(N2CCN(C(=S)Nc3ccccc3C)CC2)cc1	-5%	-0.1%	-18%	.
8	CC1CC(=O)C2=C(C1)Nc1ccccc1N=C2 (configuration not stated)	0%	-3.6%	7%	3
9	COc1ccc(NS(=O)(=O)c2cccc(C(=O)N/N=C(\C)c3ccncc3)c2)cc1	0%	-0.1%	14%	-3
10	CC(=O)n1cc([C@H]2C=C(C(=O)NCc3ccccc3)O[C@@H](OCc3ccc(CO)cc3)C2)c2ccccc21	19%	?	-23%	-1
11	CC1(C)CC(=O)C(CCC(=O)c2ccccc2)C(C)(C)N1 (configuration not stated)	-2%	-1.3%	-6%	7
12	CCN(CC(=O)Nc1ccc(S(N)(=O)=O)cc1)S(=O)(=O)c1cc(C)ccc1OC	-4%	-0.6%	13%	-7
13	Cc1cc(C(=O)COC(=O)CC2Sc3ccccc3NC2=O)c(C)n1-c1ccc(Br)cc1 (configuration not stated)	-6%	8.1%	-1%	0
14	CC1(C)N=C(N)NC(Nc2ccc(Br)cc2)=N1	-2%	-4.5%	13%	1
15	CC1(C)CC(=O)C=C(CN2C(=O)c3ccccc3C2=O)C1=O	.	0.0%	-2%	.
16	Cc1ccc(CN2CCN(CC(=O)NCCCN3CCN(c4ccc(F)cc4)CC3)C2=O)cc1	10%	-0.7%	-9%	6
17	NNC(=O)C1CC(O)CN1S(=O)(=O)c1ccc(Cl)cc1 (configuration not stated)	0%	0.2%	0%	-21
18	COC(=O)/C=C/C(=O)NCc1ccco1	2%	1.9%	16%	-2
19	CC(=O)N1CCN(C(=S)c2ccc([N+](=O)[O-])cc2)CC1	1%	-0.8%	-5%	0
20	O=C(COC(=O)Cc1ccccc1[N+](=O)[O-])NCc1ccccc1Cl	2%	3.4%	-20%	7
21	CCCC(C(=O)NCCC(C)C)N(Cc1ccc(OC)cc1)C(=O)c1snc(C(N)=O)c1N (configuration not stated)	16%	6.4%	1%	.
22	CC(=O)Nc1ccc(NC(=O)CSc2nnc(-c3ccco3)o2)cc1	-2%	4.6%	-2%	-5
23	COc1cc2c(cc1OC)CN(CCC(=O)c1ccc(Br)cc1)CC2	2%	-0.1%	1%	-3
24	COc1ccc2cc(C(=O)C3CCCN(C(=O)C4=NN(C)C(=O)CC4)C3)ccc2c1 (configuration not stated)	-13%	1.7%	8%	.
25	COc1ccccc1NC(=O)CSCC(=O)N1c2ccccc2CCc2ccccc21	6%	1.1%	-4%	-10
26	COc1ccc(-c2nc3n(c(=O)c2C#N)CCS3)c(OC)c1	-15%	1.7%	1%	.
27	COc1ccc(CCNC(=O)COc2nncc3ccccc23)cc1	3%	0.1%	-11%	3
28	O=C(Oc1ccc2c(c1)OCO2)C12CC3CC(CC(C3)C1)C2	-15%	-3.4%	28%	4
29	COC(=O)C1=C(NC(=O)c2cccc(OC)c2)CCS1	-5%	?	?	-4
30	COCCCNC(=O)c1cc(C(=O)c2ccccc2Br)c[nH]1	0%	10%	6%	-4

(continued)
cpd	mol	miR-21 FLuc	Rango complex inh	Rango release inh	GLA inh pH 4.5
31	Brc1ccc(-c2nc(-c3ccccn3)no2)o1	27%	7.0%	5%	6
32	COc1cc(Cl)ccc1OCc1cc(C(=O)N2CCN(c3ccccn3)CC2)no1	0%	-2.0%	?	.
33	CCOCC(=O)Nc1nnc(C2CCCCC2)s1	-50%	-0.1%	8%	3
34	COc1ccc(Cl)cc1-n1c(N)c(C(N)=O)sc1=S	-4%	-2.9%	20%	-9
35	O=C(COc1ncnc2ccccc12)NCCc1ccccc1	0%	-0.2%	0%	-2
36	Cc1ccc(C(=O)N2CCN(c3ccccn3)CC2)cc1	-2%	2.2%	-1%	2
37	CCn1ncc(Br)c1C(=O)Nc1ccccc1C(F)(F)F	-2%	-1.3%	-10%	.
38	O=C(c1ccccc1)N1CCN(c2ccc(N3CCOCC3)nn2)CC1	.	-4.9%	-23%	.
39	COc1ccc2c(c1OC)C(=O)N1C2SC[C@H]1C(=O)NC1CC(C)(C)NC(C)(C)C1 (some centres not stated)	-12%	?	-9%	.
40	COCCn1c(SC(C)C(=O)Nc2ccc(N3CCOCC3)cc2)nnc1-c1ccncc1 (configuration not stated)	.	-2.1%	9%	.
41	CCOC(=O)N1CCN(S(=O)(=O)N2CCCC(C(=O)NCc3cccc(OC)c3)C2)CC1 (configuration not stated)	5%&3%	-0.5%	-8%	.
42	CC(C)CC(Nc1ncnc2scc(-c3ccccc3)c12)C(=O)O (configuration not stated)	-4%	-0.3%	4%	.
43	Cc1ccc(-c2nnn(CC(=O)N(c3cnc4ccccc4c3)C(C(=O)NC3CCCC3)c3ccncc3)n2)o1 (configuration not stated)	1%	0.1%	-11%	2
44	CCC(=O)OCC(=O)Nc1cc(C)c(C)cc1[N+](=O)[O-]	-3%	-0.2%	0%	1
45	COc1ccc(-c2cc3cc(F)ccc3cn2)cc1	.	0.3%	32%	.
46	COc1ccc2oc3ccccc3c(=O)c2c1	-8%	-0.9%	-24%	-5
47	O=S(=O)(Nc1ncccn1)c1ccc(NC(=S)NCc2cccnc2)cc1	1%	1.7%	1%	9
48	Cc1ccc(S(=O)(=O)/C(C#N)=C/c2c(N3CC(C)OC(C)C3)nc3ccccn3c2=O)cc1 (configuration not stated)	-3%	?	?	5
49	O=C(CN(c1ccccc1)S(=O)(=O)c1ccccc1)Nc1ccc(F)cc1	4%	-2.6%	-7%	.
50	CCCCN(C(=O)Nc1ccc(OCC)cc1)C1CCN(C(C)=O)CC1	-7%&-2%	-2.2%	-10%	8
51	COc1ccc(NC(=O)COc2ccccc2Cc2ccccc2)cc1S(N)(=O)=O	?	-3.2%	11%	.
52	O=C(c1cccnc1)C1CCCN(Cc2nc(Cc3ccccc3)no2)C1 (configuration not stated)	-1%	1.1%	-11%	5
53	N#CCCn1cc(/C=N/O)c(-c2ccccc2)n1	1%	6.0%	-13%	-3
54	CCN1CCN(CC(O)COCCOc2ccc(Br)cc2)CC1 (configuration not stated)	-4%	2.4%	-7%	-17
55	CC(=O)c1cccc(CN2CCC(C(=O)Nc3cccc(-c4ccn[nH]4)c3)CC2)c1	19%	0.8%	17%	.
56	CCCCCCCN1C(Nc2ccccc2)=NC[C@@H]1CC(C)C	?	-1.4%	18%	.
57	O=C(CN1C(=O)CC(c2ccccc2)Sc2ccccc21)NCC1CCCO1 (configuration not stated)	-4%	?	9%	-7
58	O=C1NC2(CCCC2)Oc2ccccc21	-6%	-1.1%	-7%	-9
59	COc1ccc(CCN2CC(C(=O)NCc3ccco3)CC2=O)cc1OC (configuration not stated)	-2%	3.9%	26%	3
60	Cc1cccc(Nc2nc(N)c([N+](=O)[O-])c(N3CCCC(C)C3)n2)c1 (configuration not stated)	20%	-3.2%	-14%	-3

More entries:
cpd	mol	miR-21 FLuc	Rango complex inh	Rango release inh	GLA inh pH 4.5
61	Cc1nc(Nc2ccc(S(=O)(=O)N3CCCC3)cc2)c2nnn(Cc3ccccc3)c2n1	0%	?	16%	7
62	Cc1cc(NC(=O)c2cccc(COc3ccc(Br)cc3)c2)no1	-79%	-1.1%	29%	5
63	Cc1ccc(S(=O)(=O)N=S(CCO)CCO)cc1	2%	2.0%	-1%	2
64	CN(Cc1ccccc1)C(=O)c1ccc(NC(=O)Cc2cccc([N+](=O)[O-])c2)cc1	.	-2.1%	-7%	.
65	COCCN(Cc1nc2ccccc2c(=O)[nH]1)C(=O)COc1cccc(C(C)=O)c1	.	-2.9%	-6%	.
66	CCOc1ccc(-c2nc(CSCC(=O)N3CCN(C(=O)c4ccco4)CC3)c(C)o2)cc1	-18%	-2.6%	6%	-1
67	COc1ccc(CCNC(=O)Cn2c(=O)[nH]c3ccsc3c2=O)cc1OC	1%	0.0%	29%	10
68	CCOC(=O)C(Cc1ccccc1)C(=O)NCc1ccccc1 (configuration not stated)	-1%	4.8%	28%	.
69	CC1(C)Cc2nc3oc4c(NCCCN5CCOCC5)ncnc4c3cc2CO1	-7%	2.4%	-17%	-8
70	Cc1cccn2c(=O)c3cc(C(=O)N4COCC4(C)C)n(Cc4ccccc4)c3nc12	.	-2.1%	-6%	.
71	COc1ccc(C(=O)Nc2nc(CC(=O)NCc3ccc(F)cc3)cs2)cc1	.	-1.8%	-7%	.
72	CC(C)n1c(CN2CCN(C)CC2)nc2c1c(=O)n(C)c(=O)n2C	.	-0.1%	14%	.
73	Cc1cc(C(C)(C)C)ccc1OCCCCN1CCCC1	-12%	-0.5%	-7%	-5
74	Cn1c(=O)c2ncn(CC(=O)Nc3ccc(N4CCOCC4)cc3)c2n(C)c1=O	1%	-1.1%	-19%	5
75	O=[N+]([O-])c1cc2c(cc1/C=N/n1c(-c3ccccn3)n[nH]c1=S)OCO2	-7%	-1.9%	-2%	-6
76	C/C(=N\OCC(=O)Nc1ccccc1C(C)(C)C)c1ccc2c(c1)OCCO2	-9%	1.2%	-11%	-2
77	C[C@H](CO)N1C[C@H](C)[C@@H](CN(C)C(=O)Nc2ccc3c(c2)OCO3)Oc2c(NC(=O)Nc3ccccc3)cccc2C1=O	.	-0.4%	0%	.
78	Cn1cnnc1SCC(=O)Nc1ccc2nc(SCc3ccccc3)sc2c1	-29%	3.2%	1%	-17
79	O=C1CCC(C(=O)N2CCN(c3ccccc3)CC2)CN1CC1CCCCC1 (configuration not stated)	-3%	-1.5%	-4%	.
80	Cc1ccc(/C=N\NC(=O)/C(=C\Nc2nccc(C)n2)NC(=O)c2ccccc2)cc1	1%	?	-23%	4
81	CCCNC(=O)c1ccc(N2CCC3(CC2)CC(c2cccc(Br)c2)=NO3)c(NC(=O)c2ccc(Cl)c([N+](=O)[O-])c2)c1	.	-2.1%	-11%	.
82	O=C(NCC1(c2ccccc2)CCCC1)c1ccc(Br)cc1	-9%	-5.4%	-1%	11
83	COc1cc(CN2CCC(Cc3ccccc3)CC2)cc(OC)c1OC	1%	-0.1%	21%	.
84	CC(C)(C)c1cc(C(=O)NNC(=O)c2ccc(Cl)cc2)no1	-7%	-2.6%	20%	6
85	COc1ccc(-n2cc(CNCc3cccnc3)c(-c3cccc(F)c3)n2)cc1	-17%	0.8%	0%	4
86	CCOC(=O)C1=C(O)/C(=C/c2ccc(CNC(=O)C(=O)Nc3ccc(C)cc3)o2)N=C1C	-5%	?	?	-12
87	Cc1ccc(NC(=S)/N=C(\N)Nc2nc(C)c3cc(C)c(C)cc3n2)cc1C	-2%	2.9%	4%	-2
88	COc1ccc(CNC(=O)CSc2nnc3c(n2)[nH]c2ccc(OC)cc23)cc1	0%	-2.5%	-9%	.
89	CCCn1cnc2cc(NCc3ccc(Br)cc3)ccc21	-66%	3.2%	17%	.

Ordered by value in Rango complex inh (ascending): five from the list above
cpd	mol	miR-21 FLuc	Rango complex inh	Rango release inh	GLA inh pH 4.5
65	COCCN(Cc1nc2ccccc2c(=O)[nH]1)C(=O)COc1cccc(C(C)=O)c1	.	-2.9%	-6%	.
70	Cc1cccn2c(=O)c3cc(C(=O)N4COCC4(C)C)n(Cc4ccccc4)c3nc12	.	-2.1%	-6%	.
85	COc1ccc(-n2cc(CNCc3cccnc3)c(-c3cccc(F)c3)n2)cc1	-17%	0.8%	0%	4
76	C/C(=N\OCC(=O)Nc1ccccc1C(C)(C)C)c1ccc2c(c1)OCCO2	-9%	1.2%	-11%	-2
78	Cn1cnnc1SCC(=O)Nc1ccc2nc(SCc3ccccc3)sc2c1	-29%	3.2%	1%	-17
